Cruzain inh Det = qHTS Assay for Promiscuous and Specific Inhibitors of Cruzain (with detergent). Potency, µM, for inactives: max response, negative = inhibition, actives largely listed as inhibitors. AID 1478, 2009. actives 0.43% (n = 200,000). purified cruzain, Z-FR-AMC fluorescence, 0.01% Triton. Cruzipain (Trypanosoma cruzi), P25779; active = well fitted curve in the direction sought with a large enough effect; inconclusive = small, poorly fitted or top-dose-only effect, or another doubt; inactive = no such curve, though single readings can be large; an effect the other way counts as inactive or inconclusive;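 also: plate controls were neutral wells for no effect and buffer without enzyme for full effect; nearly all actives have a fitted effect of over 40% in size; top concentration of the series not given in the record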
Target sequence (P25779 123-467 limits assumed): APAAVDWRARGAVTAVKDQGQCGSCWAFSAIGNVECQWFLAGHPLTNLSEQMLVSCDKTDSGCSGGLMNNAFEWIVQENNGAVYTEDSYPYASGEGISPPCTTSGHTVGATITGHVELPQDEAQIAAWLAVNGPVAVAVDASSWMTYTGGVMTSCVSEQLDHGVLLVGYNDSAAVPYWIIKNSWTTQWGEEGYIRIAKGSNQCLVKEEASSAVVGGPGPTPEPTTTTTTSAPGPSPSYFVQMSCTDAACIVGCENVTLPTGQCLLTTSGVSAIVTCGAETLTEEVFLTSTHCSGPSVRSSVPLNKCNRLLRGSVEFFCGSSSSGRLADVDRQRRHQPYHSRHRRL
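15 min RT preincubation of 1.5 nM cruzain with compound, then 2 uM Z-FR-AMC added; kinetic AMC fluorescence, 60 s delta. Triton X-100 0.01%, pH 5.5.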
RE007 growth inh = qHTS Assay for Inhibitors of the HIV-1 protein Vpr. AID 651644, 2012. actives 0.21% (n = 360,000). Potency, µM (highest dose often 92.2 µM), for the others: at the highest dose activity change, negative = less growth. S. pombe RE007 Vpr strain, BacTiter-Glo ATP luminescence, 24 h; control for the full effect not named in the record; active = well fitted falling curve with a large enough effect; inconclusive = small, poorly fitted or top-dose-only effect; inactive = no such curve, though single readings can be large or run the other way;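 also: % is scaled to controls: 0 for no effect and ±100 for the full control effect; nearly all actives have a fitted effect of over 50% in size; the assay follows cell death caused by Vpr and the record does not say whether a fall means rescue or toxicity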
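Fission yeast strain RE007, carrying one chromosomally integrated HIV-1 vpr copy, was seeded at OD 0.01 in PMG+AL medium with 23 nL pinned compound. After 24 h at 30 °C and 99% humidity, viability was read by BacTiter-Glo luminescence.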
Cruzain noTriton = qHTS Assay for Promiscuous and Specific Inhibitors of Cruzain (without detergent). AID 1476, 2009. Cruzipain (Trypanosoma cruzi), P25779. purified cruzain, Z-FR-AMC fluorescence, no detergent. Potency, µM, for inactives: max response, negative = inhibition, actives largely listed as inhibitors. actives 2.3% (n = 200,000); active = well fitted curve in the direction sought with a large enough effect; inconclusive = small, poorly fitted or top-dose-only effect, or another doubt; inactive = no such curve, though single readings can be large; an effect the other way counts as inactive or inconclusive;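 also: plate controls were enzyme without inhibitor for no effect and buffer without enzyme for full effect; nearly all actives have a fitted effect of over 40% in size; top concentration of the series not given in the record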
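Detergent-free condition (0.00005% Triton X-100) in acetate buffer pH 5.5 with DTT. 1.5 nM enzyme and compound were pre-mixed 15 min, then 2 uM Z-FR-AMC substrate added; reaction progress from fluorescence change between first and third reads (60 s).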
NS1 inh = qHTS Assay for Inhibitors of Influenza NS1 Protein Function; actives 0.4% (n = 270,000); S. cerevisiae slowed by influenza A NS1, growth recovery by OD600; Potency, µM (series often up to 46.1 µM), for inactives: at the top dose activity, positive = more growth; also: actives are rising curves; nearly all actives have a fitted effect of over 50% in size
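OD600 was taken as the measure of yeast growth restored by compound in an NS1-expressing S. cerevisiae strain. Cells had been washed out of glucose medium and diluted 1:100 into galactose -URA medium, pH 6.0.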
SARS PLpro yeast = qHTS of Yeast-based Assay for SARS-CoV PLP; S. cerevisiae expressing SARS-CoV PLpro, growth rescue; control for the full effect not named in the record; Potency, µM (series often up to 32.9 µM), inactives show top-dose activity, positive = growth rescue; actives 0.19% (n = 330,000); also: 0% is about no effect; nearly all actives have a fitted effect of over 55% in size; growth read by luminescence after 48 h
Marburg entry inh = qHTS for inhibitors of binding or entry into cells for Marburg Virus; Marburg virus pseudotyped entry inhibition, cell reporter; control for the full effect not named in the record; about a third of the inactives were read at about 46 µM; actives 1.8% (n = 300,000); Potency, µM (titrated, usually from 37.8 µM), without a hit: at the top dose activity change, negative = inhibition, usual class: inhibitors; active = well fitted inhibition curve with a large enough effect; inconclusive = small, poorly fitted or top-dose-only effect, or effect the other way; inactive = flat fitted curve, though single readings scatter; tested in HEK293 cells; about a fifth of its hits are not listed in these tables; also: % is scaled to controls: 0 for no effect and ±100 for the full control effect; luciferase read-out
LASV entry inh = qHTS for Inhibitors of binding or entry into cells for Lassa Virus; Lassa virus pseudotype entry inhibition, cell reporter; control for the full effect not named in the record; Potency, µM (series often up to 37.9 µM), for the others: at the top dose activity change, negative = inhibition, actives largely listed as inhibitors; actives 1.2% (n = 300,000); active means well fitted inhibition curve with a large enough effect; inconclusive means small, poorly fitted or top-dose-only effect, or effect the other way; inactive means flat fitted curve, though single readings scatter; tested in HEK293 cells; also: % is scaled to controls: 0 for no effect and ±100 for the full control effect; nearly all actives have a fitted effect of over 50% in size; luciferase read-out
StopGo reporter = High Throughput Screening for Foot and Mouth Disease Virus Antivirals; actives 1.2% (n = 410,000); human cells with a luciferase reporter of 2A StopGo recoding; control for the full effect not named in the record; Potency, µM (doses to about 57.9 µM), for inactives: top-dose signal change, negative = less light; active = well fitted falling curve with a large enough effect; inconclusive = small, poorly fitted or top-dose-only effect; inactive = no such curve, though single readings can be large or run the other way; tested in HEK293T cells; also: % is scaled to controls: 0 for no effect and ±100 for the full control effect; nearly all actives have a fitted effect of over 45% in size; luciferase light after 4 h
* marks the source's active call; other numbers are inactive results; ? = inconclusive; . = not tested or not shown; & = joins results of further samples; [ ] = another dose, or the depositor's remark. Unless noted, calls follow the shape of the dose curve; as a rule, active means well fitted rising curve with a large enough effect; inconclusive means small, poorly fitted or top-dose-only effect; inactive means no such curve, though single readings can be large or run the other way. Potency is read from the fitted curve at half-maximal effect.

entry	SMILES	NS1 inh	RE007 growth inh	Marburg entry inh	Cruzain noTriton	StopGo reporter	SARS PLpro yeast	LASV entry inh	Cruzain inh Det
1	COc1ccccc1CCN1CCCC(CN(C)CC(C)(C)CO)C1 (stereo not given)	-6%	-10%	13µM*	.	-16%	-3%	?	.
2	O=C(CCCCn1ccc(=O)[nH]c1=O)Nc1ccc(C(=O)O)c(O)c1	.	-9%	-12%[46.1 µM]	.	-1%	.	0%[46.1 µM]	.
3	Cn1c(=O)c2c(SCC(=O)N3CCc4ccccc43)nc(-c3ccc(Cl)cc3)nc2n(C)c1=O	.	.	.	17%	-21%	.	23%[46.1 µM]	7.6%
4	COc1cc(/C=N/N2CCN(C3c4ccccc4-c4ccccc43)CC2)ccc1O	11%	2%	-53%	-1%	?	-8%	-36%	1.5%
5	COc1ccc(C(=O)n2nc(C)cc2Nc2ccccc2)cc1	-7%	-6%	?	5%	3%	-28%	?	-7.7%
6	O=C(CCN1C(=O)/C(=C\c2ccccc2)SC1=S)Nc1ccc(C(=O)O)cc1	-1%	5%	-5%[46.1 µM]	.	-9%	0%	?	.
7	Cc1ccccc1NS(=O)(=O)c1cc(C(=O)NCCSC2CCCCC2)ccc1C	?	11µM*	?	0%	.	-4%	8.2µM*	-4.6%
8	COc1ccccc1C(=O)NC(=O)CSc1cccc[n+]1[O-]	.	0%	?	.	30%	11%	3%	.
9	CCC1(c2ccc(F)cc2)NC(=O)N(CC(=O)NC2CCCCCC2)C1=O (stereo not given)	.	12%	-17%	.	-3%	-7%	-2%	.
10	O=c1c2c3c(sc2nc(NCCO)n1-c1ccccc1)CCCC3	0%	13%	1%	.	5%	4%	1%	.
11	CCC(CO)(CO)N(CC(=O)Nc1ccc(OC)cc1)CC(=O)Nc1ccc(OC)cc1	0%	5%	.	.	-11%	0%	.	.
12	FC(F)(F)c1cccc(NC(=S)NC(c2ccccc2)c2ccccc2)c1	6%	5%	?	14%	25µM*	19%	-27%	-2.4%
13	CC1CCCN(CCCOc2ccccc2-c2ccccc2)C1 (stereo not given)	-9%	-18%	?	.	-26%	16%	?	.
14	C/C(=N\NC(=O)c1ccccc1)c1c(O)n(Cc2ccccc2)c(=O)[nH]c1=O	-4%	-3%	?	.	1%	0%	29%	.
15	O=C(CSC1=NCCN1)NC1CCCCCC1	?	4%	-19%	-5%	?	9%	-5%	-5.7%
16	COC(=O)COc1cccc(NC(=O)C(c2ccccc2)c2ccccc2)c1	16%	8%	5%[46.1 µM]	.	-20%	1%	0%[46.1 µM]	.
17	CN1C(=O)c2ccccc2Sc2ccc(NC(=O)NCc3ccccc3Br)cc21	.	.	-2%[46.1 µM]	11%	-22%	.	-12%[46.1 µM]	-3.5%
18	Cc1cc(C)n(S(=O)(=O)c2ccc(C)c(C)c2)n1	7%	1%	.	.	1%	-9%	.	.
19	CN(C(=O)c1ccc(F)cc1)c1ccccc1C(=O)NCc1ccccc1	4%	-3%	2%	.	-18%	5%	?	.
20	CCOc1ccccc1NC=C1C(=O)OC2(CCCCC2)OC1=O	-5%	-1%	4%	-5%	.	-2%	14%	-4.6%
21	CCOC(=O)c1cc(-c2ccccc2)n(CC(=O)NCc2ccc(C)cc2)c1C	.	.	.	-3%	6%	.	?	-0.1%
22	CN(C)C(=O)c1ccc(NC(=O)COc2cccc(Oc3ccccc3)c2)cc1	-2%	-10%	.	.	-11%	-2%	.	.
23	CCCN(C(=O)COC(=O)COc1c(C)cccc1C)c1c(N)n(Cc2ccccc2)c(=O)[nH]c1=O	.	5%	12%	.	-24%	.	-12%	.
24	Cc1cccc(CN2CCN(Cc3cccc4nonc34)CC2CCO)n1 (stereo not given)	3%	-3%	13%[46.1 µM]	.	-14%	0%	0%[46.1 µM]	.
25	CCOC(=O)c1cccnc1SC(CC)C(=O)NCc1ccco1 (stereo not given)	5%	2%	-2%	-3%	4%	0%	15%	7.7%
26	COc1n[nH]c(C(=O)Nc2cc(F)ccc2C)c1[N+](=O)[O-]	-83%	-10%	4%	6%	?	-25%	-17%	-1.9%
27	CC1Cn2c(nnc2-c2ccccc2O)S1 (stereo not given)	3%	-6%	0%	1%	4%	5%	.	6.7%
28	O=C(c1ccncc1)N1CCN(C2CCC(c3ccccc3)CC2)CC1 (stereo not given)	-1%	-12%	?	.	-15%	-7%	19%[46.1 µM]	.
29	O=C(COC(=O)c1cccs1)Nc1ccc(Cl)cn1	.	1%	-30%	.	28%	-2%	1%	.
30	O=C(CSc1ccc(-c2ccccn2)nn1)NCc1ccc(Cl)cc1	.	-19%	-17%[46.1 µM]	.	-18%	22%	-30%[46.1 µM]	.
31	COCCNC(=O)CSc1nc2sc(C)c(C)c2c(=O)n1-c1ccccc1	-2%	-9%	10%	.	0%	0%	2%	.
32	CCOc1ccc(/C=C(\C#N)c2nc3ccccc3c(=O)[nH]2)cc1OC	.	.	.	-2%	11%	.	21%[46.1 µM]	0.2%
33	CN(C)CCNC(=O)COc1cccc(Cl)c1	3%	6%	16%	1%	0%	-3%	5%	2.6%
34	O=[N+]([O-])c1cccc(-c2nc(-c3ccncc3)no2)c1	-9%	?	?	3%	34%[activator]	-5%	0%	-0.5%
35	Cc1ccc(NC(=O)Cn2nc([N+](=O)[O-])c(Br)c2C)cc1C	1%	-11%	2%	-4%	.	1%	-7%	0.1%
36	Nc1c(-c2ccccc2)c(CN2CCOCC2)nn1-c1ccc(F)cc1	2%	1%	?	9%	0%	1%	8%	-2.8%
37	COc1ccccc1N1CCN(S(=O)(=O)c2cc(Br)cnc2N)CC1	-11%	-21%	-25%[46.1 µM]	.	-28%	?	?	.
38	Cc1ccccc1-c1nc(CS(=O)(=O)CC(=O)N2CCc3ccccc3C2)c(C)o1	-92%	-9%	1%	-6%	-27%	-5%	.	-4.7%
39	O=C(c1ccc2c(=O)n(C3CCCC3)c(=S)[nH]c2c1)N1CCN(C2CCCCC2)CC1	-13%	-3%	-3%	-3%	-13%	-8%	18%	0.4%
40	CCS(=O)(=O)CCSc1nc2c(cc1C#N)CCCC2	-43%	3%	22%	-6%	.	-4%	3%	1.3%
41	COc1ccc(F)cc1S(=O)(=O)N1CCCN(S(=O)(=O)c2cc(F)ccc2OC)CC1	-26%	6%	2%&-26%	19%	-21%	1%	16%	-6.0%
42	CC(=O)Nc1ccc(CN2CCCC(CCC(=O)NCc3ccccc3F)C2)cc1 (stereo not given)	3%	-18%	.	.	-12%	-2%	.	.
43	CC(=O)Nc1c(C(=O)N2CCCCCC2)cnn1-c1ccccc1	3%	-1%	15%	3%	3%	-1%	6%	3.1%
44	COC(=O)[C@@H](NC(=O)NCc1cccs1)C(C)C	?	-2%	2%	5%	0%	5%	26%	-3.0%
45	CC(C)c1ccc(C(C(=O)NC2CCCCC2)N(C(=O)c2csnn2)C2CC2)cc1 (stereo not given)	9%	5%	6.3µM*	.	6%	4%	-1%[46.1 µM]	.
46	COc1ccc(CN2CCCC(C(=O)c3ccc(SC)cc3)C2)cc1Cn1cccn1 (stereo not given)	-1%	1%	?	.	?	0%	-14%	.
47	Cc1c(C(=O)O)sc2nc3n(c(=O)c12)CCC3	.	-20%	24%[46.1 µM]	.	18%	0%	26%	.
48	CNC(=O)Oc1ccc2ncccc2c1	-24%	-2%	10%	2%	-15%	14µM*	9%	-3.3%
49	COc1ccccc1OCc1ccc(C(=O)N2CCN(C)CC2)o1	-4%	-9%	14%	9%	-6%	-2%	?	1.0%
50	CCN(Cc1ccccc1)C1CCN(Cc2ccc(SC)cc2)CC1	.	-14%	17%[46.1 µM]	.	-18%	-4%	.	.
51	NC(=O)COC(=O)c1ccc2c(c1)C(=O)N(Cc1ccco1)C2=O	-11%	-7%	10%[46.1 µM]	.	0%	-1%	4%[46.1 µM]	.
52	CC(C)COP(=O)(OCC(C)C)C(Nc1ccccc1)c1ccc(F)cc1 (stereo not given)	2%	-16%	?	15%	-5%	2%	-13%	-6.2%
53	O=C(c1ccc(CNc2c(N3CCCC3)c(=O)c2=O)cc1)N1CCc2ccccc2C1	2%	4%	0%	-4%	-3%	-2%	.	1.1%
54	CCCCn1c(N)c(N2CCOCC2)c(=O)n(CC(=O)NCCc2ccccc2)c1=O	-1%	-2%	8%[46.1 µM]	.	8%	3%	-18%	.
55	COc1ccc(Oc2ccccc2/C=C/C(=O)O)cc1	-8%	-12%	?	-3%	11%	-2%	7%	2.0%
56	CCN(C(=O)CCn1cnc2onc(-c3ccc(F)cc3)c2c1=O)c1ccc(OC)cc1	.	.	.	-14%	0%	.	?	-1.2%
57	COc1ccc(C(=O)OCC(=O)Nc2nc3c(F)c(F)c(F)cc3s2)cc1OC	.	-18%	?	.	-8%	6%	0%	.

Reprinted at random: 3 entries already listed.
entry	SMILES	NS1 inh	RE007 growth inh	Marburg entry inh	Cruzain noTriton	StopGo reporter	SARS PLpro yeast	LASV entry inh	Cruzain inh Det
57	COc1ccc(C(=O)OCC(=O)Nc2nc3c(F)c(F)c(F)cc3s2)cc1OC	.	-18%	?	.	-8%	6%	0%	.
51	NC(=O)COC(=O)c1ccc2c(c1)C(=O)N(Cc1ccco1)C2=O	-11%	-7%	10%[46.1 µM]	.	0%	-1%	4%[46.1 µM]	.
48	CNC(=O)Oc1ccc2ncccc2c1	-24%	-2%	10%	2%	-15%	14µM*	9%	-3.3%

Assay outcomes as filed in PubChem BioAssay.

Hits appear at their usual frequency; overall some 4.7% were active at least once.
